Mtb MbtI inh: MbtI salicylate synthase inhibition; purified MbtI enzyme, fluorescence intensity read-out; inhibition, %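 (about 17 µg/mL by stock and volumes)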; 100,000 compounds, 0.89% hits;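 active = above 50% in both replicates, above 80% if mildly self-fluorescent; inactive = the rest, strongly fluorescent compounds included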;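 note: 0% = mean of negative and 100% = mean of positive controls; one replicate is shown; some compounds called inactive have numbers as strong as hits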
Target sequence (P9WFX0 whole entry, looked up): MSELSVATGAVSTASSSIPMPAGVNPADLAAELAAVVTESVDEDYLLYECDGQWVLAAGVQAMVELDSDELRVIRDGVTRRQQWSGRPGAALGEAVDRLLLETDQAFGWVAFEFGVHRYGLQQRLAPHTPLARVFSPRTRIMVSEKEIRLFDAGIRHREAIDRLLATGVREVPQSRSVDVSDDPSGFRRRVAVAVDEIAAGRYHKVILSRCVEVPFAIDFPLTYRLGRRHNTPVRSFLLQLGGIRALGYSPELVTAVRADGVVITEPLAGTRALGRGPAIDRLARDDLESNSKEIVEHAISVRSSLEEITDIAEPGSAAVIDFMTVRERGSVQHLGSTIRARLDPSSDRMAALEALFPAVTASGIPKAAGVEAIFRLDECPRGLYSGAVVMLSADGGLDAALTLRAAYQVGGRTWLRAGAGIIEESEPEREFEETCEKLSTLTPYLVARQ
MenB inh: inhibitors of Mycobacterium tuberculosis MenB enzyme. MenB enzyme assay, absorbance read-out; some hits fall short of the stated cut. inhibition, %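 (about 12 µg/mL by stock and volumes)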. 100,000 compounds, 0.43% hits;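 active = mean of two replicates above 30%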;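 note: 0% = no compound and 100% = wells with inactive enzyme; the first replicate is given; strong numbers were not always called active; inactives centre near -10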
Polio RdRp inh: inhibitors of poliovirus RNA polymerase binding and polymerization | AID 588519 | % elongation, % (compound at 16.7 µg/mL) | P03300 | poliovirus polymerase elongation, fluorescence polarization; active compounds read low | 150,000 compounds, 0.66% hits; in the data active = % elongation below about 90%; note: some results filed as inactive read as strong as hits
Target sequence (P03300 1749-2209 limits assumed): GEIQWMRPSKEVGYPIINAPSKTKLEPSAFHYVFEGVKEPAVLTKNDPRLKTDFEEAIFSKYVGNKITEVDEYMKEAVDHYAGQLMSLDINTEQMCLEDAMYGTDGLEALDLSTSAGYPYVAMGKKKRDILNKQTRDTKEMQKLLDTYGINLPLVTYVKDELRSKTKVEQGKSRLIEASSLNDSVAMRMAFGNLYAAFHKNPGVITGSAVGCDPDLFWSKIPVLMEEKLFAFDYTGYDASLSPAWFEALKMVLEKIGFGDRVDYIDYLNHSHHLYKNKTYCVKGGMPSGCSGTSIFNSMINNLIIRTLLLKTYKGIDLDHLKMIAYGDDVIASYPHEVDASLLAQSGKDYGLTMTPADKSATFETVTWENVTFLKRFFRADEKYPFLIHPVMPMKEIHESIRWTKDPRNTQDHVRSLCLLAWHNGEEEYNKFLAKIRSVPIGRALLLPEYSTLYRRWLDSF
Polio RdRp inh intensity: also measured in Polio RdRp inh; calls as there; % elongation; measured here: total intensity read-out; formula for this scale not given here;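 total fluorescence in place of polarization; lower means less elongation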
* marks the source's active call; other numbers are inactive results; nt = not tested or not shown; & = joins results of further samples.

SMILES	Mtb MbtI inh	MenB inh	Polio RdRp inh	Polio RdRp inh intensity
CC1CCCC(C)N1S(=O)(=O)c1ccccc1 (stereo not given)	-19	-3	103	101
C=CCNCc1ccc(-c2ccc(C(C)O)cc2)o1 (stereo not given)	21	8	101	103
CCC(C)N1CCN(C2CCCCC2)CC1 (stereo not given)	-11	44*	100	101
Cc1cc(Oc2ccccc2)nc(SCc2ccccc2)n1	1	-7	104	105
CCc1cc2c(=O)c(Oc3ccc(F)cc3)c(C)oc2cc1O	-25	nt	102	107
CC(=O)Nc1ccc(S(=O)(=O)N(C)S(=O)(=O)c2ccc(F)cc2)cc1	-9	-5	103	108
CC1(C)NC(=O)N(Cc2ccccc2)C1=O	-2	17	100	102
Cn1ncc2c(=O)n(CC(=O)NC34CC5CC(CC(C5)C3)C4)cnc21	-5	7	100	102
O=C(Oc1ccccc1N1CCOCC1)c1ccco1	-6	11	104	113
CC(SC1CCCCC1)C(=O)Nc1ccc(S(N)(=O)=O)cc1 (stereo not given)	-15	5	104	103

Ordered by number of heavy atoms (high to low): seven of the compounds above
SMILES	Mtb MbtI inh	MenB inh	Polio RdRp inh	Polio RdRp inh intensity
Cn1ncc2c(=O)n(CC(=O)NC34CC5CC(CC(C5)C3)C4)cnc21	-5	7	100	102
CCc1cc2c(=O)c(Oc3ccc(F)cc3)c(C)oc2cc1O	-25	nt	102	107
CC(SC1CCCCC1)C(=O)Nc1ccc(S(N)(=O)=O)cc1 (stereo not given)	-15	5	104	103
O=C(Oc1ccccc1N1CCOCC1)c1ccco1	-6	11	104	113
C=CCNCc1ccc(-c2ccc(C(C)O)cc2)o1 (stereo not given)	21	8	101	103
CC1CCCC(C)N1S(=O)(=O)c1ccccc1 (stereo not given)	-19	-3	103	101
CCC(C)N1CCN(C2CCCCC2)CC1 (stereo not given)	-11	44*	100	101

Remaining list, next part
SMILES	Mtb MbtI inh	MenB inh	Polio RdRp inh	Polio RdRp inh intensity
Oc1ccc(C(=S)N2CCCCC2)cc1	58*	-54	96	90
COc1cc2ccccc2cc1C(=O)OCC(=O)Nc1ccccc1Cl	5	nt	99	102
COc1ccccc1NC(=O)c1oc2ccccc2c1NC(=O)CSCc1ccccc1	49	-17	103	101
COC(=O)c1sccc1NC(=O)c1ccc2nonc2c1	-4	-9	103	100
COc1cccc(CC(=O)Nc2nnc(SCc3ccc(C#N)cc3)s2)c1	-26	-12	101	107
Cc1c(/C=C(/C#N)C(=O)Nc2ccc(Cl)cc2)c2ccccc2n1C	-9	-102	100	106
CC(C)C(CC(=O)O)c1ccco1 (stereo not given)	-2	-2	101	100
O=C(CSc1ccc(S(=O)(=O)N2CCCC2)cn1)Nc1ccc2c(c1)OCCCO2	9	-5	105	101
CC1CC(C)CN(C(=O)COC(=O)c2ccccc2NC(=O)c2ccco2)C1 (stereo not given)	-10	9	96	109
CC(=O)Nc1nc(C)c(Cc2ccccc2)c(=O)[nH]1	nt	-5	106	111
Cc1nnc2c3c(-c4ccccc4)csc3ncn12	-7	nt	101	105
CC1(C)C2=CC3(C)N(CC(=O)N2c2ccccc21)c1ccccc1C3(C)C (stereo not given)	4	6	102	96
COc1ccc(Cl)cc1NC(=O)CN1CCCC(c2nnc(SC)n2C(C)C)C1 (stereo not given)	-7	-27	101	99
COc1ccc(-n2nc(C(=O)NCC(=O)Nc3ccccn3)c3ccccc3c2=O)cc1	9	3	101	102
O=C(Nc1ccccc1)C(Cc1cccs1)c1nn[nH]n1 (stereo not given)	4	17	102	101
CCOc1ccc(NC(=O)c2cc(Cl)nc3ccccc23)cc1	-2	nt	102	96
COc1ccc(NC(=O)COC(=O)C2CCCCN2S(=O)(=O)c2cccc3nsnc23)cc1 (stereo not given)	10	-5	104	96
O=C1CC(C(=O)Nc2ccc(C(=O)O)cc2)C(c2ccccc2)O1 (stereo not given)	-3	-1	101	105
CCCn1cnc2cc(NCc3ccc(OCC)cc3)ccc21	-478	-41	100	102
CCNc1nc2nonc2nc1NCC	nt	-3	102	108
COc1cc(/C=C(\C#N)c2ccc(C)cc2)cc(OC)c1OC	18	9	101	99
O=C(CNc1cc(=O)[nH]c(=S)[nH]1)NCc1ccco1	-17	-6	103	103
N#CC1(c2ccc(Cl)cc2)CCCCC1	-4	7	102	105
CCC(C(=O)O)n1cnc2ccccc21 (stereo not given)	3	-2	101	101
CC(C)Cc1cc(-c2cccc(Br)c2)c(C#N)c(N)n1	nt	-17	103	104
COc1ccc(C(=O)NCc2ccccc2)cc1OC	-16	-11	101	102
S=c1[nH]nc(CSCCOc2ccccc2)o1	15	-19	99	95
Cc1cccc(C(=O)NC(C)(C)CC(C)(C)C)c1	-12	nt	101	108
N/C(=C\C(=O)c1cccs1)C(F)(F)F	3	-23	102	104
Nc1c(C(=O)N2CCOCC2)nnn1-c1ccccc1	-6	-19	103	101
Cc1ccccc1NC(=O)NC(C)(C)CC(C)(C)C	-18	-19	99	101
NC(=O)C1CCN(C(=O)CC(c2ccccc2)c2ccccc2)CC1	-2	22	102	101
COC(=O)c1c(NC(=O)CSc2nncs2)sc2c1CCCCC2	-2	-7	104	104
CC1C2CC(=O)N(C)C1(C)Oc1ccccc12 (stereo not given)	-36	-52	100	103
O=C(NCCn1cccc1)c1cccc2ccccc12	53*	6	102	106
Cc1cc(=O)[nH]c(N/N=C/CCc2ccccc2)n1	3	-2	101	101
CN1CCN(C(=O)c2n[nH]c(=O)c3ccccc23)CC1	0	3	101	99
CC(C)(C)N1C(=O)NC(=O)/C(=C/c2ccccc2Cl)C1=O	-19	-99	95	97
CNCC(=O)NC(C)(C)C	-10	-17	110	111
COc1ccc2c(=O)c(NC(=O)Nc3ccc(F)cc3F)c[nH]c2c1	7	-33	100	99

Compounds above with fluorine, in the order listed:
SMILES	Mtb MbtI inh	MenB inh	Polio RdRp inh	Polio RdRp inh intensity
CCc1cc2c(=O)c(Oc3ccc(F)cc3)c(C)oc2cc1O	-25	nt	102	107
CC(=O)Nc1ccc(S(=O)(=O)N(C)S(=O)(=O)c2ccc(F)cc2)cc1	-9	-5	103	108
N/C(=C\C(=O)c1cccs1)C(F)(F)F	3	-23	102	104
COc1ccc2c(=O)c(NC(=O)Nc3ccc(F)cc3F)c[nH]c2c1	7	-33	100	99

Remaining list, next part.
SMILES	Mtb MbtI inh	MenB inh	Polio RdRp inh	Polio RdRp inh intensity
Cc1ccccc1-n1cnnc1SCC(=O)c1cc(C)n(C2CCS(=O)(=O)C2)c1C (stereo not given)	8	7	101	105
Nc1ccc(NC(=O)CCN2CCOCC2)cc1	nt	6	103	97
Cc1ccc(/C=C2/SC(=S)N(c3ccc(C(=O)O)c(O)c3)C2=O)o1	17	-173	107	106
Cc1cc2c(=O)[nH][nH]c(=S)n2n1	2	-45	103	100
COc1ccc(N2CCN(C(=S)Nc3ccccc3)CC2)cc1	7	-18	102	98
Cn1cccc1Cc1nnc(SCC(=O)Nc2ccccc2C(F)(F)F)n1CCc1ccccc1	2	-5	101	104
Cc1cc(C)c2c(-n3cccc3)c(C(=O)NCCc3ccc(S(N)(=O)=O)cc3)sc2n1	10	-1	103	104
Nc1ccc(C(F)(F)F)c(C(F)(F)F)c1	-3	nt	98	99
COc1ccc(NC(=O)N2CC(C)Sc3ccccc32)cc1 (stereo not given)	-7	-16	102	103
COc1ccccc1C(O)(c1ccc(O)cc1)C(CN1CCOCC1)c1ccccc1 (stereo not given)	-10	9	101	101
COc1cc(N)ncn1	4	-16	102	103
c1ccc(Cn2c3c(c4ccccc42)CCOc2ccccc2-3)cc1	11	-15	100	104
CCc1cc2cc(C)cc(C)c2nc1Cl	2	-31	104	104
CN(C)S(=O)(=O)c1cccc(C(=O)N=C=S)c1	96*	-67	70*	80*
CCOC(=O)c1ccc(NC(=O)NC(C)c2ccc3c(c2)OCO3)cc1 (stereo not given)	15	-8	104	103
CCOC(=O)N1CCC(NC(=O)c2cc3cc4cc(OC)ccc4nc3o2)CC1	106	-9	104	102
O=C(C1CCCCC1)N1CCCCCCC1	-7	-20	101	100
O=C(c1ccccc1)c1cnc(Nc2nc3ccccc3o2)nc1-c1ccccc1	-7	8	102	103
c1ccc(-c2cc3ccccc3[nH]2)cc1	nt	-28	106	97
Cn1c(C(=O)NCCCN2CCCC2=O)cc2sccc21	1	-3	102	102
Cc1ccc2c(c1)c1c(n2CCC(=O)O)C(=O)CCC1	28	1	101	100
CN(Cc1ccccc1)Cc1nc2ccccc2n1C	-9	-30	102	100
O=C(NN1CCCCC1)C12CC3CC(CC(O)(C3)C1)C2	-10	-26	101	100
O=C1CCC(=O)N1CN(Cc1ccccc1)Cc1ccccc1	14	2	103	102
Oc1ccc(CN2CCCCC2)c2cccnc12	-3	12	110	118
CCCCN(C)C(=O)Cn1ncc2c3ccccc3n(C)c2c1=O	47	-7	102	103
Cc1ccc(-c2[nH]c(=O)n3ccncc23)s1	27	-56	94	104
NNC(=O)[C@H]1[C@@H]2C[C@@H]3c4[nH]c5ccccc5c4CCN3C[C@H]2CC[C@H]1O	25	9	103	106
COc1ccc(-c2cc(-c3ccccc3)c(C#N)c(SC3CCCCC3=O)n2)cc1 (stereo not given)	-12	-18	100	98
O=C1NC(=O)N(C2CCCCC2)C(=O)/C1=C/c1ccc(O)cc1	13	-34	97	105

The last 4 entries of the section above come first, to join the parts:
SMILES	Mtb MbtI inh	MenB inh	Polio RdRp inh	Polio RdRp inh intensity
Cc1ccc(-c2[nH]c(=O)n3ccncc23)s1	27	-56	94	104
NNC(=O)[C@H]1[C@@H]2C[C@@H]3c4[nH]c5ccccc5c4CCN3C[C@H]2CC[C@H]1O	25	9	103	106
COc1ccc(-c2cc(-c3ccccc3)c(C#N)c(SC3CCCCC3=O)n2)cc1 (stereo not given)	-12	-18	100	98
O=C1NC(=O)N(C2CCCCC2)C(=O)/C1=C/c1ccc(O)cc1	13	-34	97	105
Cc1cccc(CC(C(=O)Nc2ccccc2)c2nn[nH]n2)c1 (stereo not given)	-5	-18	102	101
CC(C)Oc1ccc(-c2cn3nc(C4CC4)sc3n2)cc1	-4	8	100	101
CSc1sc(-c2ccnc(SCC(=O)c3ccc(Cl)cc3)n2)c2c1C(=O)CCC2	87	-9	99	115
Nc1nnc(CC(=O)N2CCCC2)o1	-5	-1	100	104
C=CCc1cccc2ccc(=O)oc12	4	3	103	99
Cc1ccc(S(=O)(=O)NC(=O)c2c(C)cc3ccccn23)cc1	92	nt	101	95
C=CC(=O)NCC1OCCc2ccccc21 (stereo not given)	3	19	101	102
CCOCc1c(C(=O)OCC(=O)c2ccccc2)oc2ccccc12	103	-27	102	106
CN(C)/N=C/c1cn(C)c2ccccc12	17	-30	102	106
O=C(O)CNC(=O)c1ccccc1OC(F)F	0	1	102	101

Four of the compounds above, with values under each structure:
Order of values – Mtb MbtI inh | MenB inh | Polio RdRp inh | Polio RdRp inh intensity
Cc1cccc(CC(C(=O)Nc2ccccc2)c2nn[nH]n2)c1 (stereo not given)
    -5 | -18 | 102 | 101
CC(C)Oc1ccc(-c2cn3nc(C4CC4)sc3n2)cc1
    -4 | 8 | 100 | 101
CSc1sc(-c2ccnc(SCC(=O)c3ccc(Cl)cc3)n2)c2c1C(=O)CCC2
    87 | -9 | 99 | 115
Nc1nnc(CC(=O)N2CCCC2)o1
    -5 | -1 | 100 | 104

(more compounds)
SMILES	Mtb MbtI inh	MenB inh	Polio RdRp inh	Polio RdRp inh intensity
Cc1cc(-c2ccccc2)nc2cc(C(=O)O)nn12	8	6	101	95
Cc1ccc(S(=O)(=O)N(CCC#N)CC2CCCO2)cc1 (stereo not given)	-8	-17	107	110
O=C(CSc1nnc(-c2cccs2)o1)N1c2ccccc2CCc2ccccc21	27	12	98	99
O=C(C1CCC(Cn2c(=S)[nH]c3ccccc3c2=O)CC1)N1CCCC1 (stereo not given)	5	-6	101	100
Cc1ccc(NC(=O)c2cc3c(=O)oc4ccccc4c3n2C)cc1F	16	-13	104	109
O=C(Nc1c[nH]c(=O)[nH]c1=O)NC1CCCC1	1	4	100	104
Cc1ccc(S(=O)(=O)NC(=O)c2cc(C)n(CCN(C(C)C)C(C)C)c2C)cc1	3	-10	99	102
COc1cc(CNc2ccc(C(=O)O)cc2)ccc1OCc1ccc(Cl)cc1	8	-60	101	97
COc1ccc(-n2c(C)cc(C(=O)COC(=O)c3ccc(C#N)cc3)c2C)cc1	-3	-1	109	109
N#CC(C#N)=Cc1ccc(-c2ccc(S(N)(=O)=O)cc2)o1	29	-121	100	117
Cc1c(NC(C)C)c(=O)n(-c2ccccc2)n1C	1&-10	1&7	100&99	96&102
CC(C)c1ccccc1NC(=O)COC(=O)c1ccc2ccccc2n1	2	nt	102	116
O=C1c2ccccc2C(=O)N1CCc1cn2cccnc2n1	nt	-12	103	108
COC(=O)c1ccc(-n2nc(C)cc2C)cc1	-2	7	98	100
CN(C)C(=S)SCC(=O)Nc1cccc(C(F)(F)F)c1	2	-25	105	106
CC(=O)N(Cc1cccnc1)Cc1cc2cc3c(cc2[nH]c1=O)OCCO3	89	-78	99	99
COc1ccc(C2C3=C(CCCC3=O)N(CC(=O)O)C3=C2C(=O)CCC3)cc1	48	-105	103	105

Source: PubChem BioAssay (ICCB-Longwood Screening Facility, Harvard Medical School)
